HPGD block: HPGD (human) dehydrogenase inhibition | Potency, µM, without a hit: top-dose activity change, negative = inhibition, hits mostly inhibitors | AID 894 | purified HPGD, NADH fluorescence kinetic, PGE2 substrate | actives 4.3% (n = 150,000) | P15428; active = well fitted inhibition curve with a large enough effect (not every such curve was filed as active); inconclusive = small, poorly fitted or top-dose-only effect, or another doubt; inactive = no such curve, though single readings can be large or run the other way;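 also: top concentration of the series not given in the record; plate controls included wells without enzyme; inactives centre near -10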
Target sequence (P15428 whole entry, looked up): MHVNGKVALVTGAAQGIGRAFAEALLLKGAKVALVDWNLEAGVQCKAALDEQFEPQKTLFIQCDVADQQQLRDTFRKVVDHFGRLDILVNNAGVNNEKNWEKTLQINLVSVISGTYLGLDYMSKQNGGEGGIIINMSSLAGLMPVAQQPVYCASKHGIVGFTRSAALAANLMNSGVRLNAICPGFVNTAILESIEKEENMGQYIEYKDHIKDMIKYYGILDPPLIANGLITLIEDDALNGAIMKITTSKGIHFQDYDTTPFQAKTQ
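NADH formation kinetics: reaction with 30 uM PGE2 and 1 mM NAD+ (final), 20 nM enzyme, Tris-HCl pH 8 with Tween 20, after 15 min compound preincubation at room temperature. Fluorescence change, last versus first of five reads.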
* marks the source's active call; other numbers are inactive results; & = joins results of further samples. % is scaled to controls: 0 for no effect and ±100 for the full control effect; potency is read from the fitted curve at half-maximal effect.

What do the screens show for `O=C(Nc1ccc(Cl)cc1)c1cc2nc(-c3ccco3)cc(C(F)(F)F)n2n1`?
HPGD block: -13%

How did COc1ccc(C(=O)NC(C(=O)N2CCc3ccccc32)C(C)C)cc1 (centres undefined) do in these assays?
HPGD block: -14%

What do the screens show for `COc1ccc(Oc2cc(F)nc(N)n2)cc1`?
HPGD block: -4%

Results for O=C(CSc1nc2cc(Cl)ccc2s1)NCc1ccc2c(c1)OCO2 ?
HPGD block: -5%

Results for Cc1nnc(SCC(=O)Nc2nsc(-c3ccccc3)n2)s1 ?
HPGD block: -11%

How did COC(=O)C(c1cc(OC)c(O)c(OC)c1)(N1CCNC(C)C1)C(F)(F)F (centres undefined) do in these assays?
HPGD block: -10%

Results for CC(C)(C)OC(=O)NCCCC(CCCNC(=O)OC(C)(C)C)C(=O)O ?
HPGD block: -15%

How did O=C(CSc1nc(Cc2ccccc2)nc2ccccc12)Nc1nc2c(s1)CCCC2 do in these assays?
HPGD block: -8%

Results for Cc1nc(-c2ccccc2)sc1-c1nc(-c2ccncc2)ncc1S(=O)(=O)c1ccccc1 ?
HPGD block: inconclusive

Results for CCCn1nnc(NC(=O)COc2ccc(CC)cc2)n1 ?
HPGD block: -9%

How did CC(COc1ccc(/C=C/c2ccccc2)cc1)[N+](C)(C)C (centres undefined) do in these assays?
HPGD block: inconclusive

What do the screens show for `CCOC(=O)c1c(NC(=O)c2ccccc2)sc2c(O)c(CN(CC)CC)ccc12`?
HPGD block: -17%

What do the screens show for `N#Cc1c(NC(=O)C2CC=CCC2C(=O)O)sc2c1CCCCCC2` (centres undefined)?
HPGD block: 18µM*

How did COc1ccc(C(=O)Nc2cccc(/C(C)=N/NC(=O)c3ccc([N+](=O)[O-])cc3)c2)cc1OC do in these assays?
HPGD block: -3%

What do the screens show for `CC(C)CC(NC(=O)C1CCCCC1)C(=O)NCc1ccccn1` (centres undefined)?
HPGD block: -4%

How did Cn1nc(C(=O)NCc2ccc(F)cc2)c2ccccc2c1=O do in these assays?
HPGD block: -9%

What do the screens show for `CC(=O)Nc1cccc(C(=O)/C=C/c2ccc(C)cc2)c1`?
HPGD block: -6%

Results for CC1CN(C(=O)c2cc3c(s2)CCC3)CC(C)O1 (centres undefined) ?
HPGD block: inconclusive

What do the screens show for `Cc1ccc(C(=O)c2cc([N+](=O)[O-])ccc2N2CCOCC2)cc1`?
HPGD block: -6%

Results for CCCC/C=C/C(NC(=O)c1ccc(C(=O)OC)cc1)c1ccccc1 (centres undefined) ?
HPGD block: -14%

How did CCN(CC)S(=O)(=O)c1ccc(NC(=O)C2CCCO2)cc1 (centres undefined) do in these assays?
HPGD block: -6%

What do the screens show for `O=C(c1ccco1)N1CCN(Cc2nnnn2CCc2ccccc2)CC1`?
HPGD block: -4%

What do the screens show for `CN(C)S(=O)(=O)c1ccc(NC(=O)c2ccc(Br)o2)cc1`?
HPGD block: -9%

How did COC(=O)c1ccc(NC(=O)CCN2CCN(CCC(=O)Nc3ccc(C(=O)OC)cc3)CC2)cc1 do in these assays?
HPGD block: 0%

Results for COC(=O)C1=C(C)NC(=O)NC1c1ccc(OCC(=O)N2CCCCC2)cc1 (centres undefined) ?
HPGD block: inconclusive

What do the screens show for `CC(C)Cc1cc(C(=O)NCCc2ccccc2)no1`?
HPGD block: -21%

What do the screens show for `N#CC1=C(N)n2c(s/c(=C\c3ccco3)c2=O)=C(C#N)C1c1ccco1` (centres undefined)?
HPGD block: -24%

How did CCOC(=O)Cc1csc(SCC(=O)NC(C)C23CC4CC(CC(C4)C2)C3)n1 (centres undefined) do in these assays?
HPGD block: -16%

What do the screens show for `CCOC(=O)c1cc2n(c1/N=C/N(C)C)-c1ccccc1C2=O`?
HPGD block: -14%

How did Cc1nc(C(=O)N(C)C)nn1-c1cc(Cl)cc(Cl)c1 do in these assays?
HPGD block: -7%

Structural class: the compounds so far with two or more sulfur atoms (five)
Results for O=C(CSc1nc2cc(Cl)ccc2s1)NCc1ccc2c(c1)OCO2 ?
HPGD block: -5%

Results for Cc1nnc(SCC(=O)Nc2nsc(-c3ccccc3)n2)s1 ?
HPGD block: -11%

How did O=C(CSc1nc(Cc2ccccc2)nc2ccccc12)Nc1nc2c(s1)CCCC2 do in these assays?
HPGD block: -8%

Results for Cc1nc(-c2ccccc2)sc1-c1nc(-c2ccncc2)ncc1S(=O)(=O)c1ccccc1 ?
HPGD block: inconclusive

How did CCOC(=O)Cc1csc(SCC(=O)NC(C)C23CC4CC(CC(C4)C2)C3)n1 (centres undefined) do in these assays?
HPGD block: -16%

(cont.)
What do the screens show for `BrC(c1cccc2ccccc12)c1cccc2ccccc12`?
HPGD block: -30%

Results for O=C(Nc1ccc(Cl)c(Cl)c1)OCc1cccnc1 ?
HPGD block: -10%

What do the screens show for `CC1(C)S[C@@H]2[C@H](NC(=O)[C@@H](NC(=O)N3CCNC3=O)c3ccccc3)C(=O)N2[C@H]1C(=O)O`?
HPGD block: -2%

What do the screens show for `CC(=O)C1C(c2cn(-c3ccccc3)nc2-c2cccs2)NC(=O)NC1(O)C(F)(F)F` (centres undefined)?
HPGD block: -14%

How did CCOCCCNC(=O)c1cc2c(=O)n3cccc(C)c3nc2n1C do in these assays?
HPGD block: inconclusive

Results for COc1ccc(NC2C[C@H]3CCCC(=O)N4CC[C@@H](C2)[C@@H]34)cc1 (some centres undefined) ?
HPGD block: 0%

Results for Cc1ccc(C(=O)NCC(=O)N2CCN(c3ncccn3)CC2)s1 ?
HPGD block: -21%

What do the screens show for `COc1cccc(C2CN(c3ccc(F)cc3F)N=C2c2cccs2)c1OC` (centres undefined)?
HPGD block: inconclusive

Results for Cc1ccc2cc3cc(C(=O)NCCCN4CCc5ccccc5C4)oc3nc2c1 ?
HPGD block: inconclusive

Results for O=S(=O)(Cc1ccccc1)N1CCN(C2Cc3ccccc3C2)CC1 ?
HPGD block: -7%

What do the screens show for `COc1cccc(NC(=O)C2CCCN2C(=O)Nc2ccccc2F)c1` (centres undefined)?
HPGD block: -10%

What do the screens show for `Cc1ccc(-n2c(SCC(=O)N3CCCc4ccccc43)nnc2-c2cccnc2)c(C)c1`?
HPGD block: -20%

Results for CC1CC1c1ccc(/C=C(\C#N)C(=O)Nc2ccc(Cl)cc2)o1 (centres undefined) ?
HPGD block: -19%

Results for Cn1cccc1C(=O)c1ccc(Cl)cc1Cl ?
HPGD block: -23%

What do the screens show for `COC(=O)c1ccccc1NC(=O)c1ccc(COc2cccc3ccccc23)o1`?
HPGD block: -26%

5 compounds from above, arranged by molar mass, low to high.
Results for CC1CC1c1ccc(/C=C(\C#N)C(=O)Nc2ccc(Cl)cc2)o1 (centres undefined) ?
HPGD block: -19%

What do the screens show for `BrC(c1cccc2ccccc12)c1cccc2ccccc12`?
HPGD block: -30%

Results for Cc1ccc2cc3cc(C(=O)NCCCN4CCc5ccccc5C4)oc3nc2c1 ?
HPGD block: inconclusive

What do the screens show for `CC(=O)C1C(c2cn(-c3ccccc3)nc2-c2cccs2)NC(=O)NC1(O)C(F)(F)F` (centres undefined)?
HPGD block: -14%

What do the screens show for `CC1(C)S[C@@H]2[C@H](NC(=O)[C@@H](NC(=O)N3CCNC3=O)c3ccccc3)C(=O)N2[C@H]1C(=O)O`?
HPGD block: -2%

Following part:
Results for O=C(CSc1nnc(-c2ccc3c(c2)OCO3)n1-c1ccccc1)c1ccc(Cl)cc1 ?
HPGD block: -12%

How did O=C(Nc1ccccc1C(=O)N1CCCC1)c1cccc(S(=O)(=O)N2CCCCC2)c1 do in these assays?
HPGD block: -4%

How did CCOC(=O)C1CCN(S(=O)(=O)c2ccc(C(C)=O)cc2)CC1 do in these assays?
HPGD block: -13%

Results for COc1ccc2c(c1OC)C(=O)N1N=C(c3ccc(O)cc3)CC21 (centres undefined) ?
HPGD block: -24%

How did O=C(CSc1ccc(-c2ccc(F)cc2)nn1)N1CCCc2ccccc21 do in these assays?
HPGD block: -23%

Results for CCc1ccc(N(C(=O)Cn2nnc(-c3ccccc3)n2)C(C(=O)NC2CCCCC2)c2ccccn2)cc1 (centres undefined) ?
HPGD block: -12%

How did O=C(N/N=C/c1cn(-c2ccccc2)nc1-c1cccs1)c1ccccc1F do in these assays?
HPGD block: -24%

How did Cn1c(CN2CCOCC2)nnc1SCC(=O)Nc1ccc2c(c1)OCCO2 do in these assays?
HPGD block: -1%

How did COc1ccc(C(=O)/C=C/c2ccc(F)cc2)c(OC(=O)c2ccc([N+](=O)[O-])cc2)c1 do in these assays?
HPGD block: -13%

How did Oc1ccc2cc(SSc3ccc4cc(O)ccc4c3)ccc2c1 do in these assays?
HPGD block: -25%

What do the screens show for `Cc1nc(NC2CCCCC2)c2nc(-c3ccccc3)n(CC3CCN(C)CC3)c2n1`?
HPGD block: inconclusive

Results for CC1=C(C#N)CCC(=O)N1Cc1c(C)cc(C)cc1C ?
HPGD block: 4%

What do the screens show for `COC(=O)C1=C(C(=O)c2ccc(C)cc2)C(c2ccc(OC)c(OC)c2)n2nnnc2N1` (centres undefined)?
HPGD block: -22%

How did COc1cc(-c2nc3cnccn3c2Nc2ccc(C(C)C)cc2)ccc1O do in these assays?
HPGD block: -27%

Results for O=C(CN1CCC(n2nnc3cc(C(F)(F)F)ccc32)CC1)N1CCc2ccccc21 ?
HPGD block: -6%

How did COCCCNC(NC(=O)c1ccc(Cl)cc1)C(Cl)(Cl)Cl (centres undefined) do in these assays?
HPGD block: -5%

How did CN(Cc1ccccc1)C(=S)Nc1ccc(OC(F)F)cc1 do in these assays?
HPGD block: -21%

Results for O=S(=O)(c1ccc(N2CCCC2)cc1)C(F)(F)F ?
HPGD block: -5%

How did O=C(Cn1nc(-c2ccccc2)ccc1=O)NCC1COCCO1 (centres undefined) do in these assays?
HPGD block: -4%

What do the screens show for `COc1ccc(OC)c(NC(=O)COC(=O)CSc2ccc(Cl)cc2)c1`?
HPGD block: -10%

Results for O=C1CN(C(=O)CSc2nnnn2-c2ccc(Cl)cc2)c2ccccc2N1 ?
HPGD block: -14%

What do the screens show for `CC(C)NC(=O)N1CCCC2(CCN(S(=O)(=O)c3ccccc3)CC2)C1`?
HPGD block: 0%

How did CCN(c1cccc(C)c1)S(=O)(=O)c1cnc[nH]1 do in these assays?
HPGD block: 4%

How did C=CCn1c(SCC(=O)Nc2ccc3c(c2)OCCO3)nnc1-c1ccco1 do in these assays?
HPGD block: -8%

Results for CCC/C=C(\CCC)C(NC(=O)c1cccs1)c1ccc(C(F)(F)F)cc1 (centres undefined) ?
HPGD block: -9%

Results for NC(=S)N=Nc1c(O)[nH]c2ccc(F)cc12 ?
HPGD block: -5%

Results for O=C(CN(CCCN1CCOCC1)C(=O)Cn1nnc(-c2ccc(F)cc2)n1)NC1CCCCC1 ?
HPGD block: -8%

How did CN(C)C(=O)NC1C=CS(=O)(=O)C1 (centres undefined) do in these assays?
HPGD block: -9%

Results for CCOC(=O)c1cnc(SC)nc1Oc1cccc(NC(=O)c2ccc(C)cc2)c1 ?
HPGD block: -23%

Results for C/C(=N\Nc1cc(C(F)(F)F)ccc1Cl)c1ccccc1O ?
HPGD block: -22%

Results for COc1ccc(C(=O)NC(=S)Nc2nnn(C)n2)cc1 ?
HPGD block: -30%

What do the screens show for `COc1ccc(CSc2nnc(Cc3sc(-c4ccccc4)nc3-c3ccccc3)o2)cc1`?
HPGD block: -14%

How did Cc1ccc(C(C(=O)NCc2ccco2)N(C(=O)CNC(=O)c2cccs2)c2ccc(C)cc2)cc1 (centres undefined) do in these assays?
HPGD block: -8%

What do the screens show for `CCC(=O)Oc1ccc2oc(=O)cc(C)c2c1`?
HPGD block: -6%

How did COC(=O)c1ccc(NC(=O)CN2C(=O)CNC2=O)cc1 do in these assays?
HPGD block: -19%

How did CCN(CC)c1ccc(C(=O)NC(=S)N2CCN(Cc3ccc4c(c3)OCO4)CC2)cc1 do in these assays?
HPGD block: -17%

Results for Clc1ccc(SCc2nc3ccccc3[nH]2)cc1 ?
HPGD block: -25%

Results for COc1ccccc1N1CCN(C(=O)c2oc3ccccc3c2C)CC1 ?
HPGD block: -11%

How did O=C(Cc1coc(-c2ccc(F)cc2)n1)NCc1ccccc1 do in these assays?
HPGD block: -29%

What do the screens show for `CCc1nn(CC(=O)NCCN2CCN(C)CC2)c(=O)c2cc3occc3n12`?
HPGD block: -10%

Results for COc1ccc2c(=O)c(-c3ccc4c(c3)OCO4)coc2c1 ?
HPGD block: -8%&-4%

Results for COc1ccc(-c2[nH]c3ccccc3c2SCCNC(=O)c2ccccc2)cc1 ?
HPGD block: inconclusive

Results for CCN(CC)S(=O)(=O)c1cc(-c2nn(C)c(=O)c3ccccc23)ccc1C ?
HPGD block: inconclusive

How did CC(C)[C@@H]1NC(=O)c2cc([N+](=O)[O-])cc(I)c2NCCC[C@@H](C(N)=O)NC(=O)[C@H](CO)NC1=O do in these assays?
HPGD block: inconclusive

How did COc1ccc(-c2nnc3sc(C(C)N4C(=O)c5ccccc5C4=O)nn23)cc1 (centres undefined) do in these assays?
HPGD block: 7.1µM*

What do the screens show for `COCCN(CC(=O)Nc1ccccc1C)S(=O)(=O)c1ccc(S(=O)(=O)N2CCCC2)cc1`?
HPGD block: -1%

What do the screens show for `Nc1nc2ncc(CNc3ccc(C(=O)N[C@@H](CCC(=O)O)C(=O)O)cc3)nc2c(=O)[nH]1`?
HPGD block: inconclusive

How did O=C(NCc1ccccc1)c1cnc2n(c1=O)CCS2 do in these assays?
HPGD block: -20%

What do the screens show for `Cc1oc(-c2ccccc2Cl)nc1CS(=O)CC(=O)NCc1cccs1` (centres undefined)?
HPGD block: -9%

Results for CCC1(CC)Cc2ccccc2C(N)=C1C#N ?
HPGD block: -7%

What do the screens show for `O=C(O)c1ccc2c(=O)n3c(nc2c1)/C(=C/c1ccccc1C(F)(F)F)CCCC3`?
HPGD block: 16µM*

How did O=C(CSc1nnc(-c2c[nH]c3ccccc23)o1)c1ccc(-c2ccccc2)cc1 do in these assays?
HPGD block: -29%

Bioassay records: PubChem, National Center for Advancing Translational Sciences (NCATS)

An excerpt; count on the stated rates, not on these rows.
